E coli growth – blocks Escherichia coli growth; OD600, 23 h; hits give low values; OD600 absorbance (no concentration beside the values); 330,000 tested, 0.21% active; AID 1053175;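 active means OD600 absorbance below the run mean of sample wells minus 3.6 SD, in any replicate, cut at about 0.56 in these data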;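 further: stock transfer was 300 nL into about 60 µL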
LANA-H2B inh – blocks KSHV LANA binding to histone H2A/H2B; cell-free LANA-H2A/H2B peptide, fluorescence polarization; inhibition, % (no concentration beside the values); 320,000 tested, 0.6% active; AID 2629; in the data active means inhibition mostly above about 10%, no sharp cut-off; inactive means mostly below about 6.7%;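 further: stock transfer was 7.5 nL into about 10 µL; 0% = median of vehicle wells and 100% = median of positive control wells; one replicate is shown; the record names a cut of 25% in any replicate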
Target sequence (Q9QR71 whole entry, looked up): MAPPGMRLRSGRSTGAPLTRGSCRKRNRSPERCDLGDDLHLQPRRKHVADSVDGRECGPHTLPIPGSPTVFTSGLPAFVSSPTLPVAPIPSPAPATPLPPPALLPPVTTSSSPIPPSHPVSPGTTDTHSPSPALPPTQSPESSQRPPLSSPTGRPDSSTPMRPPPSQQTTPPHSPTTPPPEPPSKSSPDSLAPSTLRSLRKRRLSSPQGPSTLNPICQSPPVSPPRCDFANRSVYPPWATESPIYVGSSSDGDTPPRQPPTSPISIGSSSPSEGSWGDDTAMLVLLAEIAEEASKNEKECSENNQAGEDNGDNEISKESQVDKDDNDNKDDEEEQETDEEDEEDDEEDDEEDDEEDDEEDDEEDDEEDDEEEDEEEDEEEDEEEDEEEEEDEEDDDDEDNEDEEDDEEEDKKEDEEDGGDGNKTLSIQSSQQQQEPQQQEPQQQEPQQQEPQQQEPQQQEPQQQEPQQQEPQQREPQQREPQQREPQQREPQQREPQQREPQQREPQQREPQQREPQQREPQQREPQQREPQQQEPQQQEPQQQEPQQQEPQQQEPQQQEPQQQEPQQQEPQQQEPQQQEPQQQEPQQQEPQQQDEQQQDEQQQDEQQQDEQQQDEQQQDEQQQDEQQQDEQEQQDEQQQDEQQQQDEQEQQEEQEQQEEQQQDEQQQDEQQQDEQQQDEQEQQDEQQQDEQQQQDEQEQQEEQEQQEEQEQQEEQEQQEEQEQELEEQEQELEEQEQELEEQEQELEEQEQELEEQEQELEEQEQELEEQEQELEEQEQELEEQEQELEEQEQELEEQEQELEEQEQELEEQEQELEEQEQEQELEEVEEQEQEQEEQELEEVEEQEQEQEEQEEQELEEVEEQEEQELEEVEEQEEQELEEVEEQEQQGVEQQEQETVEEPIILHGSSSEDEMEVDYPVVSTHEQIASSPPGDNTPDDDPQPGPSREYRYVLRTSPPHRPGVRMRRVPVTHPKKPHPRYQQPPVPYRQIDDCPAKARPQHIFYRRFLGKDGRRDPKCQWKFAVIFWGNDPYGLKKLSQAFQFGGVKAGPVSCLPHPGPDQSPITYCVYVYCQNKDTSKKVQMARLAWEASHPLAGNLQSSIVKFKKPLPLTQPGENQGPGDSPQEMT
HNF4A DNA FP – change in binding of human HNF4 alpha to DNA; P41235; HNF4a-FITC DNA binding, fluorescence polarization, 1 h; AID 1224865; 360,000 tested, 0.3% active; activity change, % at 10 µM; in the data active means activity change above about 30%, passing the limit was not always enough;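 further: controls were the assay level and a saturating level of protein; the project sought stronger binding though the title names inhibitors; some compounds called inactive have numbers as strong as hits; positive values seem to mean higher polarization but the record does not say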
Vif TR-FRET – inhibitors of Vif binding to APOBEC3G peptide, primary screen, biochemical, TR-FRET, GST-Vif 1-94, biotin-A3G peptide, dose response retest (AID 1117319); 260,000 tested, 0.57% active; TR-FRET GST-Vif / biotin-A3G peptide binding; higher % means a stronger effect; test concentration not given here; strong numbers were not always called active; inhibition, %, or IC50 in µM where a hit was titrated;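 active means above the screen mean plus three standard deviations and confirmed in dose response; inconclusive means results disagree or hit not tested in dose response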;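 further: Vif residues 1-94 fused to GST binding biotinylated APOBEC3G peptide 110-148; 0% = full assay without inhibitor and 100% = GST in place of GST-Vif; retest series ran down from 100 µM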
UCH37 DUB inh – inhibitors of human deubiquitinating enzyme UCH37; purified proteasome/UCH37, Ub-AMC cleavage fluorescence; inhibition, % (no concentration beside the values); 330,000 tested, 0.33% active; AID 588478;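 active means mean of two replicates above 20%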;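 further: 0% = compound-free wells with enzyme and 100% = wells lacking proteasome; stock transfer was 100 nL into about 20 µL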
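Assay system: Proteasome-bound UCH37. Buffer or medium: pH 7.4 Tris-HCl (50 mM) with ovalbumin, ATP-MgCl2, DTT. Incubation: 30 min preincubation with enzyme, 25 min cleavage at room temperature. Measured by: fluorescence, ex 355 nm, em 460 nm. Read-out basis: percent inhibition. Control set: wells without proteasome as full block, compound-free enzyme plus substrate as uninhibited.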
B2AR ag – agonists of human beta-2 adrenergic receptor inducing internalization; P07550; Am2.2-beta2AR cells, FAP receptor internalization, flow cytometry; reference of the scale not given here; response, % (concentration not given with the values); 340,000 tested, 0.43% active; AID 504454;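 active means response above a set limit, near 3 SD of response in nonfluorescent compounds, cut at about 42% in these data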;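 further: stock transfer was 100 nL into about 11 µL; a reference agonist was the positive control; negative values mostly stem from fluorescent compounds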
A1 inh – inhibitors of the anti-apoptotic protein A1, read as caspase activation; MEF A1-2A-BIM cells, Caspase-Glo 3/7 luminescence, 3 h; percent of clofoctol response, vehicle zero; caspase activation, % (no concentration beside the values); 330,000 tested, 0.066% active; AID 2462;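 active means over half of replicate activation scores above 10%, or exactly half above 10 with the replicate mean above 10; inconclusive means replicate mean below 10 yet half the replicates above 10; inactive means over half of replicates below 10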;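 further: wells of about 30 µL received 50 nL stock; many hits fall short of the cut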
Active calls of the source: *; i = inactive; ? = inconclusive; . = no result given.

SMILES | E coli growth | LANA-H2B inh | HNF4A DNA FP | Vif TR-FRET | UCH37 DUB inh | B2AR ag | A1 inh
CC(=O)Nc1cccc(C(=O)OCC(=O)Nc2nnc(-c3ccccc3)o2)c1 | 0.66 | 1.3 | 0.5 | -1% | 0.0 | -2 | -0.1
COCC(=O)N1CCCC(C(=O)c2ccc(Oc3ccccc3)cc2)C1 (stereo unspecified) | 0.65 | 2.4 | 1.1 | 2% | -1.9 | -24 | 0.3
CCN(CC)S(=O)(=O)c1ccc(C(=O)NCCN2C(=O)S/C(=C\c3cccnc3)C2=O)cc1 | 0.7 | -4.2 | 1.2 | -179% | 7.7 | -13 | -0.2
CC(/C=C/C=C/c1ccccc1)=N/NC(=O)c1ccc2c(c1)OCCO2 | . | -1.5 | -8.2 | 29% | . | -6 | -0.1
CCOc1ccccc1N1CC(C(=O)NCCOc2ccccc2OC)CC1=O (stereo unspecified) | 0.61 | 1.0 | -1.6 | 2% | -1.0 | -10 | 0.6
Cc1cc(C(=O)NC2CCCc3c2cnn3-c2ccc(C)c(C)c2)no1 (stereo unspecified) | 0.65 | -1.6 | 3.1 | 2% | 1.0 | 0 | 0.3
CCCCNC(=O)CN1C(=O)C(CC)Oc2ccc(Cl)cc21 (stereo unspecified) | 0.67 | -9.9 | 2.7 | -4% | 0.4 | -2 | 0.2
CC1(C(=O)OCC(=O)Nc2ccc(C(N)=O)cc2)CC1(Cl)Cl (stereo unspecified) | 0.71 | -4.3 | -3.3 | -9% | 1.4 | 1 | -0.8
CC(C)OC(=O)c1cccc(C(=O)OCc2ccco2)n1 | 0.69 | 2.1 | -1.1 | 19% | 1.4 | 4 | 0.4
NS(=O)(=O)c1ccc(NS(=O)(=O)c2ccc(NC(=O)C3CC3)cc2)cc1 | 0.67 | i | -1.6 | 2% | 1.4 | -10 | 0.6
Cc1cc(C(F)F)n2ncc(C(=O)NCc3ccccc3F)c2n1 | 0.68 | -2.2 | 5.6 | -6% | 2.8 | -2 | 0.1
CN(C)/C=C/C=C1C(=O)CCCC1=O | 0.74 | 1.3 | -5.5 | . | 9.4 | 7 | 0.2
COc1cccc(OCC(=O)Nc2cc(NC(=O)COc3cccc(OC)c3)cc(C(=O)O)c2)c1 | 0.71 | 2.7 | 2.3 | . | 1.7 | 4 | 0.2
O=C(O)c1ccc2c(c1)CCCN2 | 0.69 | 4.4 | -5.8 | -1% | 2.6 | 9 | -0.8
CC(=O)Nc1ccc(-c2nnc(SCC(=O)Nc3ccc4c(c3)oc3ccccc34)n2C)cc1 | 0.79 | 1.5 | 2.8 | -3% | 1.8 | 6 | -0.8
O=C(NCc1ccccc1)/C(=C\c1ccccc1)NC(=O)c1ccco1 | 0.63 | -2.4 | -2.6 | . | -0.1 | 1 | 0.3
Cc1ccc(/C=N/NC(=O)c2ccc(Br)o2)s1 | . | -1.9 | 2.0 | ? | . | -1 | -0.2
Cc1ccc(C(=O)Nc2ccccc2Sc2ccccc2)cc1 | 0.71 | -2.1 | -2.7 | . | 0.1 | -4 | -1.6
C=CCN1C(=O)c2ccc(C(=O)N(CC)CC(=O)Nc3cc(Cl)ccc3C)cc2C1=O | 0.67 | . | 1.3 | -2% | 1.7 | -10 | -0.5
CC(C)OCCCNC(=O)c1ccc2c(=O)n(Cc3ccc4c(c3)OCO4)c(=S)[nH]c2c1 | 0.67 | 2.0 | 2.2 | ? | 2.3 | -1 | -0.9
CC(C)CC(OC(=O)c1cccs1)C(=O)NCc1cccs1 (stereo unspecified) | 0.72 | -3.0 | -1.7 | 1% | 1.3 | -3 | -0.4
CCc1nn2c(NCCCO)cc(C)nc2c1-c1ccc(F)cc1 | 0.71 | 2.4 | 0.4 | . | -16 | -6 | 0.1
CN(C)CCCN(C(=O)c1ccc2c(c1)CCCC2)c1nc2ccc(F)cc2s1 | 0.64 | -5.8 | 4.2 | . | -0.5 | 12 | 0.2
CN(C)c1ccc(/C=C2/SC(=O)N(CCN=C3NS(=O)(=O)c4ccccc43)C2=O)cc1 | . | 2.0 | 11 | 3% | . | -7 | 0.7
O=C(NCC(=O)N1CCCC1)c1ccc(Cl)cc1 | 0.69 | 6.3 | -2.9 | -3% | 2.6 | 2 | 0.0
CC(C)Sc1nc(N2CCOCC2)c2c3c(sc2n1)COC(C)(C)C3 | 0.63 | -2.1 | 5.4 | -6% | -1.7 | -13 | 0.5
COc1cc2ncnc(NCc3ccccc3F)c2cc1OC | 0.63 | 1.3 | 2.5 | -6% | 1.9 | 11 | 1.0
Cc1ccc(CN2CCN(c3cccc4[nH]ccc34)CC2)cc1 | 0.62 | 2.0 | -1.5 | -12% | 1.3 | -4 | 0.1
Cc1ccc(C)c(NC(=O)CCc2c(C)nn(-c3ccc(N4CCCCC4)nn3)c2C)c1 | 0.71 | -2.9 | 1.5 | -4% | 1.8 | -10 | 0.7
O=C(CSc1ccc(Cl)cc1)Nc1ccc(NC(=O)c2ccco2)cc1 | 0.72 | 0.7 | -1.0 | ? | 0.9 | -8 | 0.6
Cc1ccccc1NC(=O)CSC1=NCCN1 | 0.7 | 7.6 | -1.2 | 12% | 4.8 | -7 | -0.3
COC(=O)C1(Cc2cc(-c3ccc([N+](=O)[O-])cc3)no2)CCN(C(=O)OC(C)(C)C)CC1 | 0.68 | 0.4 | 0.5 | . | 1.2 | 0 | -1.0
CCOc1ccc(CN2CCN(CC3CC3)CC2CCO)cc1 (stereo unspecified) | 0.7 | 0.3 | 2.9 | . | 2.8 | -2 | -1.4
O=C(COC(=O)C1CCN(S(=O)(=O)c2ccc3c(c2)OCCO3)CC1)Nc1cccc2ccccc12 | 0.72 | -2.5 | 2.1 | 15% | 1.3 | -4 | -0.2
CN(C(=O)CSc1nc2[nH]ncc2c(=O)[nH]1)c1ccccc1 | 0.73 | -3.1 | 3.1 | -8% | -1.0 | 5 | 1.1
OC(COc1cccc2ccccc12)CN1CCCC1 (stereo unspecified) | 0.67 | 3.5 | -0.9 | 0% | 3.4 | 6 | -0.1

Retrieved by structure from the entries so far, three records:
SMILES | E coli growth | LANA-H2B inh | HNF4A DNA FP | Vif TR-FRET | UCH37 DUB inh | B2AR ag | A1 inh
O=C(NCC(=O)N1CCCC1)c1ccc(Cl)cc1 | 0.69 | 6.3 | -2.9 | -3% | 2.6 | 2 | 0.0
Cc1ccc(CN2CCN(c3cccc4[nH]ccc34)CC2)cc1 | 0.62 | 2.0 | -1.5 | -12% | 1.3 | -4 | 0.1
COc1cc2ncnc(NCc3ccccc3F)c2cc1OC | 0.63 | 1.3 | 2.5 | -6% | 1.9 | 11 | 1.0

New compounds follow:
SMILES | E coli growth | LANA-H2B inh | HNF4A DNA FP | Vif TR-FRET | UCH37 DUB inh | B2AR ag | A1 inh
Cc1ccc(-c2[nH]c(-c3ccc(C(=O)O)cc3)nc2-c2ccccc2)cc1 | . | 1.5 | -1.0 | -1% | . | 3 | -0.3
CCOC(=O)C1=C(C)NC(=O)NC1c1c(C)nn(-c2ccccc2)c1Cl (stereo unspecified) | 0.74 | -4.0 | -8.5 | 13% | 2.2 | -7 | 0.7
Cc1ccc(CN(C)C(=O)C2CCCN2C(=O)c2cccs2)o1 (stereo unspecified) | 0.72 | 1.0 | 4.0 | 4% | 4.8 | 0 | 0.3
CCCCSc1nnc([C@H](CC(C)C)NC(=O)OC(C)(C)C)o1 | 0.74 | -0.3 | -1.6 | 7% | 3.2 | 6 | 1.5
COc1ccc(C2=NN(c3ccc(C(=O)O)cc3)C(c3ccc(OC)c(OC)c3)C2)cc1 (stereo unspecified) | 0.71 | -0.4 | 2.2 | . | i | 7 | 0.2
CCOc1cccc(/C(O)=C2/C(=O)C(=O)N(CCN3CCOCC3)C2c2ccncc2)c1 (stereo unspecified) | 0.69 | 0.1 | . | 8% | 9.7 | . | 0.4
O=C(Nc1ccc([N+](=O)[O-])cc1)C1CC12CCC2 (stereo unspecified) | 0.68 | 0.8 | -0.8 | . | 5.7 | -2 | -1.0
COC(=O)c1cc(S(=O)(=O)NCCc2ccc(C)cc2)c[nH]1 | 0.77 | -1.4 | -0.5 | . | 4.9 | 3 | 0.4
Cc1ccc(C2=NN(C(=O)CSc3nccn3C)C(c3ccco3)C2)cc1 (stereo unspecified) | 0.72 | -3.8 | 2.3 | 2% | 2.2 | -19 | 0.0
Cc1cc2c(NC3CCCCC3)ncnc2s1 | 0.66 | -7.5 | -0.1 | . | 1.1 | -1 | 2.0
CN1C(=O)c2c(sc3c2CC(C)(C)SC3)N2CCN=C12 | 0.71 | . | 0.6 | 0% | -20 | -3 | 0.3
Cc1ccccc1/[N+]([O-])=C/c1ccncc1 | 0.7 | -4.2 | -1.5 | 22% | 4.6 | -7 | 0.3

The closing 2 records of the part before open the next one:
SMILES | E coli growth | LANA-H2B inh | HNF4A DNA FP | Vif TR-FRET | UCH37 DUB inh | B2AR ag | A1 inh
CN1C(=O)c2c(sc3c2CC(C)(C)SC3)N2CCN=C12 | 0.71 | . | 0.6 | 0% | -20 | -3 | 0.3
Cc1ccccc1/[N+]([O-])=C/c1ccncc1 | 0.7 | -4.2 | -1.5 | 22% | 4.6 | -7 | 0.3
COC(=O)c1ccc(C)c(NC(=O)CN(c2cc(OC)ccc2OC)S(C)(=O)=O)c1 | 0.69 | -2.6 | 0.5 | 9% | 2.1 | 7 | -0.5
CCOc1ccc(N2C(=O)CC(N3CCN(C4CCc5ccccc5C4)CC3)C2=O)cc1 (stereo unspecified) | 0.74 | 12 | -1.9 | -2% | 3.2 | -10 | 0.4
Cc1ccc(C(=O)C[n+]2cc(Br)cc(Br)c2)cc1[N+](=O)[O-] | . | 0.4 | 0.8 | -17% | . | 1 | -1.7
COc1ccc(N2CCN(C(=O)c3ccc(CS(=O)c4cccc(C)c4)o3)CC2)cc1 (stereo unspecified) | 0.67 | -7.7 | 4.5 | . | 0.0 | 2 | 0.6
Cc1cccc(N=C2NC(=O)/C(=C/c3cccnc3)S2)c1C | 0.6 | -0.1 | 1.7 | -8% | 7.5 | 13 | -0.3
O=C(Nc1ccc(S(=O)(=O)Nc2ncccn2)cc1)c1cc([N+](=O)[O-])ccc1Cl | 0.7 | 4.5 | 0.7 | 5% | 5.1 | 10 | -1.2
O=C(CSc1nnc(COc2ccc(Cl)cc2)o1)N1CCOCC1 | 0.67 | -0.1 | 2.5 | -6% | 2.6 | 1 | 0.1
N#CCSc1nnc(CNc2cccc(Cl)c2)o1 | 0.66 | -0.4 | 8.2 | 15% | 4.0 | 2 | 0.9
CC(C)NCC(O)COc1ccc(Br)cc1 (stereo unspecified) | 0.7 | 0.4 | 2.6 | -6% | -0.6 | 1 | 0.8
Cc1nn(-c2ccccc2)c2c1C1(C(=O)N(C)c3ccccc31)C(C#N)=C(N)O2 (stereo unspecified) | 0.69 | -2.0 | 0.0 | 0% | 1.8 | -2 | 0.6
O=C(N/N=C/c1ccc2cccc(OCc3ccccc3)c2n1)c1ccc(Br)cc1 | . | -2.0 | -5.2 | -2% | . | 19 | 0.5
CCCCN(C(=O)C(C)N1C(=O)c2ccccc2C1=O)c1c(N)n(CC(C)C)c(=O)[nH]c1=O (stereo unspecified) | 0.62 | 14* | -3.0 | 9% | -0.6 | 0 | 0.4
Nc1nc(CN2CCOCC2)cs1 | 0.68 | -3.2 | 0.4 | 18% | 2.4 | 1 | 1.2
Cc1cccc(NC(c2ccc(O)cc2)c2ccc3ccc(C)nc3c2O)n1 (stereo unspecified) | 0.69 | 2.9 | -6.2 | 19% | 4.2 | 15 | 0.9
COC(=O)C1=C(NC(=O)c2ccc(Br)cc2)CCS1 | 0.77 | 5.3 | 1.4 | 2% | -1.6 | 22 | -0.2
